Screens: PubChem BioAssay, ICCB-Longwood Screening Facility, Harvard Medical School
Mtb MenB inh – M. tuberculosis MenB inhibitors, primary screen, biochemical, absorbance | MenB enzyme assay, absorbance read-out; some hits fall short of the stated cut | 0.43% of 100,000 active | AID 540299, 2011 | inhibition, %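 (about 12 µg/mL by stock and volumes)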 | 1,4-dihydroxy-2-naphthoyl-CoA synthase (Mycobacterium tuberculosis (strain ATCC 25618 / …;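 active = mean of two replicates above 30%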;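 also: 0% = no compound and 100% = wells with inactive enzyme; the first replicate is given; strong numbers were not always called active; inactives centre near -10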
PV pol inh – poliovirus RdRp elongation inhibitors, primary screen, biochemical, fluorescence polarization, total intensity; Genome polyprotein (Poliovirus type 1 (strain Mahoney)), P03300; poliovirus polymerase elongation; active compounds read low; % elongation, % (compound at 16.7 µg/mL); 0.66% of 150,000 active; in the data active = % elongation below about 90%; also: some results filed as inactive read as strong as hits
Target sequence (P03300 1749-2209 limits assumed): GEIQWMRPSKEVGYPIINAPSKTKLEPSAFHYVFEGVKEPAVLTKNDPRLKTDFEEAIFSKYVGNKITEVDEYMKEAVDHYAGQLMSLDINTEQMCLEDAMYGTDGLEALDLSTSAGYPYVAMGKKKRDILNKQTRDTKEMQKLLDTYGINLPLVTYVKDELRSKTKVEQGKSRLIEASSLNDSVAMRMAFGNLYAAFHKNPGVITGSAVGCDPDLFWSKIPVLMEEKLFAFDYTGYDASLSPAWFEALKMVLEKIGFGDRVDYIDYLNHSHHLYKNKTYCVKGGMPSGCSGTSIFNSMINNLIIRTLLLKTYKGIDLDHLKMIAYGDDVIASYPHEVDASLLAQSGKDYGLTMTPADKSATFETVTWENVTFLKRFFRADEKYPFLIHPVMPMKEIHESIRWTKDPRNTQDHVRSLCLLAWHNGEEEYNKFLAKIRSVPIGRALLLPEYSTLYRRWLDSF
Mtb MbtI inh – MbtI salicylate synthase inhibitors, primary screen, biochemical, fluorescence intensity; P9WFX0; 0.89% of 100,000 active; inhibition, %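 (about 17 µg/mL by stock and volumes)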; purified MbtI enzyme, fluorescence intensity read-out;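 active = above 50% in both replicates, above 80% if mildly self-fluorescent; inactive = the rest, strongly fluorescent compounds included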;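 also: 0% = mean of negative and 100% = mean of positive controls; one replicate is shown; some compounds called inactive have numbers as strong as hits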
Target sequence (P9WFX0 whole entry, looked up): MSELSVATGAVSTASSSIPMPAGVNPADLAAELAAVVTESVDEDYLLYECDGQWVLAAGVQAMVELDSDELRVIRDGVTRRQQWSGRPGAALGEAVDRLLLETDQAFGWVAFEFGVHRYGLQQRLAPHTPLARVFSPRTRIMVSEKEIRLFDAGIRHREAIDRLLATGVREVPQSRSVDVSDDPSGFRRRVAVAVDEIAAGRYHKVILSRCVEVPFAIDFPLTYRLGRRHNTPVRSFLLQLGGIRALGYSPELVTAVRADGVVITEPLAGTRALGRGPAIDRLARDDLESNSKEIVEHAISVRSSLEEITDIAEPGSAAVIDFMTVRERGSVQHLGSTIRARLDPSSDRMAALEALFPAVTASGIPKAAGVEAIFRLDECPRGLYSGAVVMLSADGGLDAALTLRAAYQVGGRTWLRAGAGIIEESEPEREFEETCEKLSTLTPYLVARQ
PV pol inh intensity – second read-out of PV pol inh, no call of its own (marks repeat the call); % elongation; measured here: total intensity read-out; formula for this scale not given here;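 total fluorescence in place of polarization; lower means less elongation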
* marks the source's active call; other numbers are inactive results; . = not tested or not shown.

SMILES	Mtb MenB inh	PV pol inh	PV pol inh intensity	Mtb MbtI inh
Cc1ccc(C)c(-c2n[nH]c(=O)c3ccccc23)c1	-3	101	108	-7
Cc1cc(C(=O)NCc2ccc(C)o2)n[nH]1	1	100	103	-16
CCOC(=O)c1sc2ncn(/N=C/c3ccc4c(c3)OCCO4)c(=O)c2c1C	1	102	108	-7
CCOC(=O)c1c(C)oc2c1c(C(c1ccccc1)N1CCOCC1)c(O)c1ccccc12 (configuration not stated)	-12	105	106	-14
Cc1nn(-c2ccccc2)nc1C(=O)NC(=O)N1CCSCC1	-3	105	112	-1
CCOc1cc2c3c(c1)C1(OCCO1)C(=O)N3C(C)(C)CC2C (configuration not stated)	-15	100	101	-2
O=c1[nH]cc(-n2c(=O)c3cc4c(=O)n(-c5c[nH]c(=O)[nH]c5=O)c(=O)c4cc3c2=O)c(=O)[nH]1	4	100	102	-1
CCOC(=O)C1CCN(CCCCOc2ccc(C#N)cc2)CC1	-24	103	103	-22
COc1cc(OC)c(NC(=O)CCc2c(C)nc3c(c2C)c(=O)n(C)c(=O)n3C)cc1Cl	-6	101	104	-8
CC(C)c1cc(C(=O)N2CCN(C(c3ccccc3)c3ccccc3)CC2)no1	1	101	106	-8
O=C(O)CCC(=O)Nc1ccc(O)c(C(=O)O)c1	6	87*	93*	106
O=C(Nc1ccccc1)N1CCCCC1	2	101	103	-9
CC1=C(C#N)C(c2c[nH]c3ccccc23)C2=C(CCCC2=O)N1 (configuration not stated)	-31	102	103	16
COc1ccc(C2=NN(CC(=O)Nc3cc(C)ccc3C)C(=O)CC2)cc1	-31	105	109	14
COc1cccc(NC(=O)N(Cc2nc3ccccc3c(=O)[nH]2)C2CCCCC2)c1	-7	102	101	8
COc1ccc(/C=C2\Oc3ccccc3N(CC(=O)N3CCOCC3)C2=O)cc1	2	102	100	6
O=C(COc1cc2oc(=O)cc(-c3ccccc3)c2cc1Cl)NC1CC1	.	101	101	-1
CCOC(=O)c1cc(-c2ccc(C)cc2)n(CC(=O)NCC2COc3ccccc3O2)c1C (configuration not stated)	-19	104	105	-1
O=S(=O)(c1cccc(S(=O)(=O)N2CCCCC2)c1)c1cccc(S(=O)(=O)N2CCCCC2)c1	-24	104	101	-11
COc1ccc(C(C#N)N2CCC(c3ccccc3)=N2)cc1 (configuration not stated)	-36	96	87	.
Cc1ccc(-c2nn(-c3ccccc3)cc2CN(Cc2ccccc2)C(=O)c2ccco2)o1	-21	101	105	46
CCC(Sc1nc2ncccc2[nH]1)C(=O)NCc1ccco1 (configuration not stated)	-17	103	108	4
Cc1nc2ccccc2c(=O)n1-c1ccc(F)c(NC(=O)c2ccco2)c1	0	106	105	18
Cc1nc(N)nc(C(F)(F)F)c1Br	11	101	100	14
O=C1CCCCCN1Cc1nnc(SCCN2C(=O)c3ccccc3C2=O)o1	-3	102	106	39

Brought forward from above: 2 entries; new compounds follow.
SMILES	Mtb MenB inh	PV pol inh	PV pol inh intensity	Mtb MbtI inh
Cc1nc(N)nc(C(F)(F)F)c1Br	11	101	100	14
O=C1CCCCCN1Cc1nnc(SCCN2C(=O)c3ccccc3C2=O)o1	-3	102	106	39
S=C(Nc1ccccc1)N1CCNC2NCCN(C(=S)Nc3ccccc3)C21 (configuration not stated)	-4	100	104	-21
Nc1nc2ccccc2n1CCOc1ccccc1	.	100	102	1
CCOc1ccccc1NC(=O)CSc1ccc(C)cc1	-9	108	108	.
COc1ccc(CN(C)c2nc(C(F)(F)F)nc3ccccc23)c(OC)c1	-17	108	103	43
Cc1ccc2c(c1)N(C(=O)CCC(=O)N1CCC3(CC1)OCCO3)CC(C)O2 (configuration not stated)	14	101	104	7
CCSc1nnc(NC(=O)CSc2nnc(Cc3cccn3C)n2-c2ccc(F)cc2)s1	-9	103	106	6
CCC(C)NCc1nc(N)nc(Nc2ccccc2C)n1 (configuration not stated)	13	106	115	-2
O=C(Cn1ncn2c(cc3ccccc32)c1=O)NCc1ccccc1	4	98	101	16
CC(C)(C)c1ccc(OCCCC(=O)Oc2ccc(-c3nnco3)cc2)cc1	1	101	106	2
CC12CC3(C)CC(CN)(C1)CC(CCN)(C2)C3	-8	105	111	.
Cn1c(=O)c2cc(N)cnc2n(C)c1=O	-19	90	143	101
NC(=O)c1ccc(NC(=O)c2cc3ccccc3oc2=O)cc1	-29	104	104	-1
Cc1cccc(NC(=O)CCN2C(=O)/C(=C\c3ccccc3)SC2=S)c1	-15	102	102	5
CCOc1ncccc1C(=O)O	-41	101	98	-2
CN(C)c1ccc(/C=N/N)cc1	-10	106	111	-3
CCOc1ccc(Br)cc1S(=O)(=O)N(C)C1CCCCC1	-15	103	107	-2
C=CCn1ccc2c(OCC(N)=O)cccc2c1=O	-8	103	95	-26
COC(=O)c1c(C)[nH]c(=O)[nH]c1=S	-39	98	108	3
Cc1ccc2c(Cl)cc(Cl)c(OCC(=O)N(C)Cc3ccccc3)c2n1	.	102	105	-8
O=C(Cc1c(Cl)cccc1Cl)NC1CCC(O)CC1 (configuration not stated)	-12	99	98	-7
CCc1ccc(Nc2nc(C)cc(C)c2C(N)=O)cc1	-43	104	101	4
COC(=O)CC1C(=O)NCCN1C(=O)C1c2ccccc2Oc2ccccc21 (configuration not stated)	11	101	105	-2
CC(Oc1ccccc1)C(=O)N/N=C/c1ccccc1 (configuration not stated)	-26	101	99	6
O=C(Nc1ccccc1)c1cccc(N2CCCC2=O)c1	20	101	102	-4
COc1cc2[nH]c(=S)n(CCc3cnc[nH]3)c(=O)c2cc1OC	1	101	102	-1

Compounds from the list above that have a COOH group (two):
SMILES	Mtb MenB inh	PV pol inh	PV pol inh intensity	Mtb MbtI inh
O=C(O)CCC(=O)Nc1ccc(O)c(C(=O)O)c1	6	87*	93*	106
CCOc1ncccc1C(=O)O	-41	101	98	-2

2 entries picked at random from those above:
SMILES	Mtb MenB inh	PV pol inh	PV pol inh intensity	Mtb MbtI inh
Cc1cccc(NC(=O)CCN2C(=O)/C(=C\c3ccccc3)SC2=S)c1	-15	102	102	5
COc1cc2[nH]c(=S)n(CCc3cnc[nH]3)c(=O)c2cc1OC	1	101	102	-1

(next part)
SMILES	Mtb MenB inh	PV pol inh	PV pol inh intensity	Mtb MbtI inh
O=C(c1ccco1)N1CCN(C(=O)C2CC(c3ccc(Cl)cc3)=NO2)CC1 (configuration not stated)	-42	101	97	-2
CC1(C)CC(=O)C(=Cc2cn(-c3ccccc3)nc2-c2cccs2)C(=O)C1	6	101	104	5
Cc1cccnc1NC1CCCCC1	.	103	101	-27
CCOC(=O)c1c(C)c2c(n1C)CCC/C2=N\O	-12	103	107	-9
C=CCNC(=O)C1CC(=O)N(c2ccc(OCC(=O)NCc3ccccc3)cc2)C1 (configuration not stated)	-8	101	104	-9
Cc1onc(-c2ccccc2)c1NC(=O)N(C)CCc1ccccn1	-23	102	96	-9
CCCCC1CCC(C(=O)Nc2c3c(nn2-c2ccc(F)cc2)CS(=O)(=O)C3)CC1 (configuration not stated)	-15	100	94	15
COc1ccc(Nc2nc(=S)[nH]c3cc(OC)c(OC)cc23)cc1	-38	98	100	4
Cc1ccc(CN2CNc3c(-c4ccccc4F)c(C)nn3C2)cc1	-15	100	104	1
O=C(O)c1cc(-c2ccc(O)cc2)on1	17	101	98	.
O/N=C/c1nc2cc(Cl)ccc2o1	7	76*	84*	103
CCOC(=O)c1c(NC(=S)Nc2ccc(OC)cc2)sc2c1CC(C(C)C)OC2 (configuration not stated)	-19	99	94	-5
Cc1nnc(NC(=O)CSc2nnc(CNC(=O)c3ccccc3F)n2C)s1	28	102	100	0
O=C(/C=C/c1ccc2c(c1)OCCCO2)N1CCN(C2CCS(=O)(=O)C2)CC1 (configuration not stated)	-6	104	109	7
COc1ccc(C)cc1-n1nnnc1SCC(=O)Nc1ccccc1C(=O)NC1CC1	-17	105	107	-29
CC(C)c1nnc(NC(=O)c2ccccc2)s1	-43	104	100	7
Cc1ccc(C2=NN(CC(=O)N3CCCCC3)C(=O)CC2)cc1	-13	101	99	8
CC[N+](CC)(CC)CCC(O)(c1ccccc1)C1CCCCC1 (configuration not stated)	9	99	98	4
COc1ccc(CN(Cc2ccco2)S(=O)(=O)c2ccc(S(=O)(=O)N3CCCC3)cc2)cc1	-14	101	101	-10
Cc1cccc(NC(=O)CNS(=O)(=O)c2ccc(Br)s2)c1	-12	99	102	12
CN(C)S(=O)(=O)c1ccc(C(=O)NCC(=O)NN)cc1	-15	101	103	-5
CCOC(=O)c1c(C)noc1N	18	99	103	0
CC(C)(C)NC(=S)NNc1c(Cl)cncc1Cl	-6	103	105	28
O=C(CSc1ccc2c(c1)OCCO2)NC1CCS(=O)(=O)C1 (configuration not stated)	-31	106	107	16
CCN1C(=O)c2ccccc2S(=O)c2ccc(C(=O)N3CCCCC3)cc21 (configuration not stated)	-10	101	97	1
The listing continues:
SMILES	Mtb MenB inh	PV pol inh	PV pol inh intensity	Mtb MbtI inh
CCOc1ccc(Nc2cccc(F)c2C#N)cc1	-28	102	102	-4
CN(C)c1ccc(/C=C2\CCCC3C2=NN(C(=S)NC(=O)c2ccco2)C3c2ccc(N(C)C)cc2)cc1 (configuration not stated)	-49	112	112	19
CCn1c(O)c(N=NC(N)=S)c2ccccc21	-66	76*	75*	78
CCN1CCSc2ccc(C(=O)NCCCN3CCCCC3)cc21	-1	103	101	-48
Clc1ccccc1-c1cc(-c2nnco2)c2ccccc2n1	.	103	106	4
CCCN1CCN(c2cc(-c3ccccc3)nc3cc(-c4cccc(F)c4)nn23)CC1	-45	101	102	90
O=C(CSc1ncnc2c1oc1ccccc12)OCc1ccccc1	-6	102	104	1
CC12CC3(C)CC(N)(C1)CC(C(=O)O)(C2)C3	6	98	101	9
N#C/C=C/N1CCN(C/C=C/c2ccccc2)CC1	0	107	101	7
Cc1ccc(Sc2nn(C)c(=O)n(C)c2=O)cc1C	-20	101	113	4
CC(C)(O)C#Cc1ccc(C(=O)NCC(c2ccccc2)c2ccccc2)cc1	-13	102	102	.
CO[C@@H]1O[C@H](COC(=O)c2ccccc2)[C@H](OC(=O)c2ccccc2)[C@H]1OC(=O)c1ccccc1	-13	110	108	-13
O=C(O)CSCc1nc2ccccc2c(=O)[nH]1	-11	102	107	4
Cn1c2ccccc2c2nnc(SCC(=O)NC3=NN=C(c4ccccc4)CS3)nc21	2	102	103	3
COC(=O)CSc1nc2ccccc2n1CC(=O)N1C(C)CCCC1C (configuration not stated)	13	102	103	-2
C=CCNC(=S)N1N=C2c3ccccc3CCC2C1c1ccccc1Cl (configuration not stated)	-4	106	111	-12
CN(C(=O)COC(=O)c1ccc(Cl)c(S(N)(=O)=O)c1)C1CCS(=O)(=O)C1 (configuration not stated)	8	100	103	-2
O=C(NC(=O)c1ccccc1C(F)(F)F)NN1CCCCC1	-25	102	101	-9
NC(=O)c1cc2c(n(-c3ccccc3)c1=O)CCCC2=O	-18	101	104	47
CC1(C)C(=S)Nc2ccccc21	2	101	106	22
Nc1cc(=O)[nH]c(SC(C(=O)N2CCCC2)c2ccccc2)n1 (configuration not stated)	6	102	99	-3
O=C(NC(NCc1ccccn1)(C(F)(F)F)C(F)(F)F)c1cccnc1	-35	106	111	-11
O=c1c2cccnc2ncn1CCCN1CCOCC1	-6	102	101	18
COc1ccc(NC(=O)NC(=O)C(F)(F)F)cc1	-40	101	103	-21
COC(=O)c1ccccc1NC(=O)CCn1cccc1	-19	107	104	34
Next part.
SMILES	Mtb MenB inh	PV pol inh	PV pol inh intensity	Mtb MbtI inh
O=C(CCn1c(=O)c2cccn2c2ccc(F)cc21)NCCc1cccs1	-25	103	104	38
O=C(COc1coc(CN2CCc3ccccc32)cc1=O)OCc1ccccc1	-10	106	107	3
COc1cccc(C(C(=O)NCc2ccco2)N(C(=O)Cn2nnc3ccccc32)C2CC2)c1OC (configuration not stated)	-43	101	102	-7
Cc1cc(C(=O)CSC(=S)N(C)C)c(C)n1-c1nccs1	-5	96	123	-2
CCN(C(=O)NC1(C(F)(F)F)Oc2ccc(Cl)cc2O1)C1CCCCC1 (configuration not stated)	-20	100	102	71*
O=C(Nc1ccccc1Cl)c1nc2c(nnn2Cc2ccc3c(c2)OCO3)c(=O)[nH]1	-16	101	97	3
Cc1ccc2oc(Nc3nc(-c4ccccc4)cc(=O)[nH]3)nc2c1	-24	93	93	-54
Cc1cc(=O)c2c(o1)CC(C)(C)CC2=O	19	94	111	-6
C=CCN(CC(=O)Nc1ccc(C)cc1)c1ccccc1	-1	104	109	-5
Cn1/c(=N\N=C2CCCCC2)sc2ccccc21	12	102	101	23
O=C(Nc1scc2c1c(=O)oc1ccccc12)c1ccccc1	4	105	112	-12
CCC1CCCCN1C(=O)COC(=O)C1=COCCO1 (configuration not stated)	-6	102	98	3

Record cards, as listed above. Values in the order: Mtb MenB inh, PV pol inh, PV pol inh intensity, Mtb MbtI inh
Entry for `C=CCN(CC(=O)Nc1ccc(C)cc1)c1ccccc1` : -1, 104, 109, -5
Entry for `O=C(COc1coc(CN2CCc3ccccc32)cc1=O)OCc1ccccc1` : -10, 106, 107, 3
Entry for `Cn1/c(=N\N=C2CCCCC2)sc2ccccc21` : 12, 102, 101, 23
Entry for `Cc1ccc2oc(Nc3nc(-c4ccccc4)cc(=O)[nH]3)nc2c1` : -24, 93, 93, -54
